# KCNQ2 inh: KCNQ2 potassium channel inhibitors, primary screen, cell-based, CHO-K1, FluxOR thallium flux, B-score (AID 2156). O88943. 20 min; stronger effect = lower value; only compounds with negative scores are shown here; some inactives read as strong as hits. B-score at 10 µM. actives 1.1% (n = 310,000);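 active means fluorescence ratio B-score at most minus 3 library SDs, with starting brightness B-score within 2 library SDs, cut at about -5.5 in these data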
# Target sequence (O88943 whole entry, looked up): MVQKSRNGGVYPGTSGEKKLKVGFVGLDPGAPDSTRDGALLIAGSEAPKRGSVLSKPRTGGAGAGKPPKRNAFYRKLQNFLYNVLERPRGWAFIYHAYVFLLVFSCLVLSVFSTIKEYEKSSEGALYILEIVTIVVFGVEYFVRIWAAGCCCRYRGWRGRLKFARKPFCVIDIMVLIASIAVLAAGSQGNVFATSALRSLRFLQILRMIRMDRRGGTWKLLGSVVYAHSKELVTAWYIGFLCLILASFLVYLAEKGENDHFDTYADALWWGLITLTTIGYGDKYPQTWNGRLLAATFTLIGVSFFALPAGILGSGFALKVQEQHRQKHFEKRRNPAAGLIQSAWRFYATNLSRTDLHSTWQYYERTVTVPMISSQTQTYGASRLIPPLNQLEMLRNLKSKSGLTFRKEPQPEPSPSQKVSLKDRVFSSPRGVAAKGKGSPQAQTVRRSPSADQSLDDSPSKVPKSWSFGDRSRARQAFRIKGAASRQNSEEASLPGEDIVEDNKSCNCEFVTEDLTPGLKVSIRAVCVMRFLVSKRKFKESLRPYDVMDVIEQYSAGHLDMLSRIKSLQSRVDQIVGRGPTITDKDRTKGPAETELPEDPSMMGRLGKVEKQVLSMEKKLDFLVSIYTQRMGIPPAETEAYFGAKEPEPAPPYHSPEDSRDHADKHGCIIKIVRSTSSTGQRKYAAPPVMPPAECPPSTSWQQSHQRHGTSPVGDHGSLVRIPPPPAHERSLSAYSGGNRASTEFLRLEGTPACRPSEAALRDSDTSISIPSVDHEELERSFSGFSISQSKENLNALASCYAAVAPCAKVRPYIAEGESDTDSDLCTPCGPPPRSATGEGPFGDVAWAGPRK
# KCNQ2 inh baseline: further read-out of KCNQ2 inh, marked with its call; B-score; measured here: initial fluorescence intensity artifact check;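 brightness before thallium and not channel activity; 0 = typical well and far values either way flag optical interference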
# Active calls of the source: *; i = inactive.
canonical_smiles,KCNQ2 inh,KCNQ2 inh baseline
C=CCOC(=O)C1=C[C@@H](c2ccc3c(c2)OCO3)C[C@@H](OCCCCO)O1,i,-1.48
CC1=C(C(=O)OCC2CCCO2)C(c2ccc(F)cc2)NC(=O)N1 (stereo not given),i,0.02
CC1Oc2ccccc2C(=O)N(CC(=O)c2ccc3c(c2)OCCO3)C1=O (stereo not given),i,-0.23
CCOC(=O)c1cc2c(=O)n3ccccc3nc2n(CC(C)C)c1=NC(=O)c1c(-c2c(F)cccc2Cl)noc1C,i,1.09
COc1cccc(NC(=O)c2ccccc2-c2nc(-c3ccc(F)cc3)no2)c1,i,-0.11
O=C(O)COc1ccccc1-c1nc(-c2ccccc2)c(-c2ccccc2)[nH]1,i,0.01
COCCCNC(=O)C1CCC(CNS(=O)(=O)c2ccc3c(c2)N(C(C)=O)CCO3)CC1 (stereo not given),i,-0.79
CCOC(=O)NCCOC(=O)Nc1ccc(Cl)cc1,i,-1.55
Cc1ccccc1S(=O)(=O)Cc1ccc(C(=O)NCCN(CC(C)C)CC(C)C)o1,i,-0.76
CCn1nc(C)cc1C(=O)N1CCc2c([nH]c3ccccc23)C1c1cc(F)ccc1F (stereo not given),i,-0.05
Cc1cccc(OC(C)C(=O)N2CCCN(C)CC2)c1C (stereo not given),i,0.09
CN(CC(=O)Nc1ccccc1C(F)(F)F)C(=O)c1ccc(-c2ccc(Cl)cc2)o1,i,-1.78
O=S(=O)(Nc1nc(CN2CCOCC2)nc2sc3c(c12)CCCC3)c1cc(F)ccc1F,i,-0.25
CCCOC(=O)c1ccc(NC(=O)C(CC)CC)cc1,i,-0.02
Brc1ccc(-c2nnc(-c3ccccc3)c(N3CCSCC3)n2)cc1,i,-1.74
Cc1ccc(NC(=O)Cn2nnc(C(=O)NCc3cccs3)c2N)cc1F,i,1.62
CCCc1ccc(C(C)NC(=O)c2cnccn2)cc1 (stereo not given),i,-1.69
COc1ccc(C(C)=O)cc1COc1nc(C)nc2ccccc12,i,-1.8
Cn1c(=O)oc2cc(S(=O)(=O)N3CCCC3)ccc21,i,0.56
O=C(CSc1nnc(-c2cccs2)n1Cc1ccccc1)NCc1ccc2c(c1)OCO2,i,-0.64
COc1ccc(N(CC(=O)NC2CC3CCC2C3)S(=O)(=O)c2ccc(C)cc2)cc1 (stereo not given),i,-0.98
COC(=O)c1cc(OC)c(OC)cc1NC(=O)CCCCCN1C(=O)CCC1=O,i,0.43
Clc1nccc(N2CCN(c3ccccc3Cl)CC2)n1,i,-1.78
O=C(NC1CCCCCC1)c1cc2c(=O)n3ccccc3nc2s1,i,-0.39
CCc1nc2cccnc2n1-c1ccc(CC(=O)NCCOC)cc1,i,-0.25
O=C(/C=C/c1ccc(F)cc1)NC(=S)NNC(=O)[C@H]1C[C@@H]1c1ccccc1,i,-0.46
NC(=O)c1c(-c2ccccc2)oc2ccc(O)cc12,i,0.54
Clc1ccc(-c2nc3cc(CN4CCCCC4)ccc3o2)cc1,i,-1.54
COc1ccc(C(C)=O)cc1COc1ccc(Cl)c(C)c1,i,-0.79
COc1ccc(CCN(C)C2CCCN(C(=O)Cn3cccn3)C2)cc1OC (stereo not given),i,-1.64
COc1ccccc1OC(=O)Cc1cccc2ccccc12,i,0.45
COc1ccc2c(c1)CCN1C2CCN2C(=O)CCC21 (stereo not given),i,-1.21
COc1ccc(NC(=O)Cn2nnc(C(=O)NCc3ccccc3)c2N)cc1Cl,i,-0.01
CSc1ccc(C(=O)C2CCCN(C(=O)c3cc4cc(F)ccc4[nH]3)C2)cc1 (stereo not given),i,-0.13
C=CCOc1cccc(C(=O)N2CCCC(CNS(=O)(=O)c3cccs3)C2)c1 (stereo not given),i,-1.06
Cc1cc(C)n(-c2ccc([N+](=O)[O-])cc2)n1,i,-0.51
O=C(NCc1cccnc1)C12CC3CC(CC(C3)C1)C2,i,-0.07
O=C1C(Cl)=C(N2CCN(c3ccccc3[N+](=O)[O-])CC2)C(=O)c2ccccc21,i,-2.95
CCNc1nc(NCC)nc(N/N=C/c2ccc(OC)cc2)n1,i,0.03
O=C(c1ccccc1Oc1ccccc1)N1CCN(c2ccc(F)cc2)CC1,i,0.66
COc1ccccc1NC(=O)c1cc(S(=O)(=O)N2CCOCC2)ccc1Cl,i,0.81
O=C(OCc1nnc(-c2ccccc2)o1)c1ccc(Cl)cc1,i,-0.75
COc1ccccc1C(c1nnnn1C(C)(C)C)N1CCCCCC1 (stereo not given),i,0.01
CC(=O)Oc1ccc(C(=O)Nn2cnnc2)cc1,i,1.13
COc1ccc(-c2cc(=NC(CC(C)C)C(=O)O)c3cc(C)ccc3o2)cc1 (stereo not given),i,-0.48

# Shown with values ahead of the structure: entries from further up
KCNQ2 inh | KCNQ2 inh baseline | Molecule
i | -1.69 | CCCc1ccc(C(C)NC(=O)c2cnccn2)cc1 (stereo not given)
i | -1.8 | COc1ccc(C(C)=O)cc1COc1nc(C)nc2ccccc12
i | 0.56 | Cn1c(=O)oc2cc(S(=O)(=O)N3CCCC3)ccc21
i | -0.64 | O=C(CSc1nnc(-c2cccs2)n1Cc1ccccc1)NCc1ccc2c(c1)OCO2
i | -0.98 | COc1ccc(N(CC(=O)NC2CC3CCC2C3)S(=O)(=O)c2ccc(C)cc2)cc1 (stereo not given)

# More records:
canonical_smiles,KCNQ2 inh,KCNQ2 inh baseline
O=C(CSc1nccc(-c2cccs2)n1)Nc1cccc(Cl)c1Cl,i,0.68
Cc1ccc(S(=O)(=O)NNC(=O)Nc2ccc(Cl)c(Cl)c2)cc1,i,0.06
COc1cccc(NC(=O)C(=O)NCc2ccncc2)c1,i,1.34
CC1CCN(c2nnc(N)s2)CC1,i,-0.76
O=[N+]([O-])c1ccc(-c2cnc[nH]2)cc1,i,1.99
CC(C)CC(NC(=O)OC(C)(C)C)c1cn([C@@H](Cc2cc3ccccc3[nH]2)C(=O)N2CCN(C(=O)OC(C)(C)C)CC2)nn1 (stereo not given in full),i,0.04
COc1ccc(Cl)cc1NC(=O)CN(C)C(=O)Cc1n[nH]c(=O)c2ccccc12,i,2.93
CCN(CC)C(=O)CCc1nnc(CCc2c[nH]c3ccccc23)o1,i,1.45
COc1ccc2c(c1)c1nc3ccccc3nc1n2Cc1ccc(OC)c(OC)c1,i,-0.24
CCCNC(=O)CN(Cc1ccco1)S(=O)(=O)c1ccc(OCC)cc1,i,-0.69
Clc1ccc(NC2=NCCC2)cc1Cl,i,0.25
CCOc1ccc(-n2c(COc3ccccc3)nnc2SCC(N)=O)cc1,i,3.71
c1ccc(C2[C@H]3CN(CC4CCCCC4)[C@H](c4ccccc4)C34CC2(c2cccnc2)C4)cc1 (stereo not given in full),i,2.46
CCO[C@@H]1OC(C(=O)N2CCCCCCC2)=C[C@H](c2ccc(C(F)(F)F)cc2)[C@H]1CCCO,i,-1.37
CCc1ccc(OCC(=O)NC(=S)Nc2ccc(C(C)=O)cc2)c(Br)c1,i,3.55

# Exported as labelled records: four of the compounds above
CCOc1ccc(-n2c(COc3ccccc3)nnc2SCC(N)=O)cc1
  KCNQ2 inh = i; KCNQ2 inh baseline = 3.71
c1ccc(C2[C@H]3CN(CC4CCCCC4)[C@H](c4ccccc4)C34CC2(c2cccnc2)C4)cc1 (stereo not given in full)
  KCNQ2 inh = i; KCNQ2 inh baseline = 2.46
CCO[C@@H]1OC(C(=O)N2CCCCCCC2)=C[C@H](c2ccc(C(F)(F)F)cc2)[C@H]1CCCO
  KCNQ2 inh = i; KCNQ2 inh baseline = -1.37
CCc1ccc(OCC(=O)NC(=S)Nc2ccc(C(C)=O)cc2)c(Br)c1
  KCNQ2 inh = i; KCNQ2 inh baseline = 3.55

# Other results follow.
canonical_smiles,KCNQ2 inh,KCNQ2 inh baseline
CSCCC(NC(=O)c1ccc(Cl)cc1Cl)C(=O)NCc1ccccn1 (stereo not given),i,0.52
NC(=O)CSc1nnc(-c2ccccn2)n1Cc1ccco1,i,1.17
S=C(c1ccccc1)N1CCSCC1,i,-0.25
Cc1ccc(N)cc1CN1CCCC1=O,i,-2.09
O=C(c1cccnc1)N1CCN(S(=O)(=O)c2ccc3ccccc3c2)CC1,i,0.5
O=C(OCC(=O)N1CCN(C(=O)c2ccco2)CC1)C1=COCCO1,i,-1.27
O=C(Nc1ccccc1Cl)C1C(c2ccccc2)C1(Cl)Cl (stereo not given),i,0.72
O=C(NCCN1CCOCC1)c1noc2c1CCc1ccccc1-2,i,1.65
CC(C)(C)CN1C(=O)C(=O)NC[C@H]1Cc1cccc2ccccc12,i,0.11
Cn1cc([N+](=O)[O-])c(C(=O)Nc2ccc(-c3nc4ccccc4o3)cc2)n1,i,-0.15
CCN(CC)CCNC(=O)Cn1cnc2sc(C)c(S(=O)(=O)N3CCN(c4ccccc4OC)CC3)c2c1=O,i,-0.51
CC(=O)N1CCN(c2ccc(NC(=O)c3ccccc3Cl)cc2)CC1,i,-0.21
CC(C)c1ccccc1OCCNC(=S)NC(=O)c1cccnc1,i,0.36
CCOc1cc(/C=C(\C#N)C(=O)NCC2CCCO2)ccc1O (stereo not given),i,3.79
NS(=O)(=O)c1ccc(NC(=O)CN2C(=O)CCC2=O)cc1,i,2.96
CCCn1c(SC(C)C(=O)NCC2CCCO2)nc2sc(CC)cc2c1=O (stereo not given),i,0.05
O=C(c1cccc(Cl)c1)N(Cc1cccs1)C1CCS(=O)(=O)C1 (stereo not given),i,1.09
O=C(CN1C(=O)C2CC=CCC2C1=O)NC1CCCc2ccccc21 (stereo not given),i,-0.02
Cc1cc2nc(SC(C)C(=O)O)[nH]c2cc1C (stereo not given),i,-0.12
CC(=O)Nc1ccc(NC(=O)c2ccccc2Sc2ccc([N+](=O)[O-])cc2Cl)cc1,i,0.69
CCc1ccc(NC(=S)Nn2cnnc2)cc1,i,1.25
O=C1C2C3CCC(C3)C2C(=O)N1CNc1ccccc1 (stereo not given),i,0.48
O=C1Nc2cc(Cl)c(Cl)cc2N(O)N1c1ccccc1,i,-1.54
CCn1cc([N+](=O)[O-])c(C(=O)N2N=C(c3ccc(OC)cc3OC)CC2c2ccccc2O)n1 (stereo not given),i,2.3
S=c1[nH]nc(-c2cc(-c3ccccc3)n[nH]2)n1/N=C/C=C/c1ccccc1,i,1.16
O=C(O)c1cc(S(=O)(=O)N2CCOCC2)c(Sc2ccccn2)cc1Sc1ccccn1,i,2.76
Cn1nc(C(=O)N2CCCc3ccccc32)c2ccccc2c1=O,i,-1.09
O=c1c2ccc([N+](=O)[O-])cc2ncn1CCOc1ccccc1,i,0.98
Cc1ccc2cc(C#N)c(N3CCCN(S(=O)(=O)c4ccccc4)CC3)nc2c1,i,0.09
Cc1nn(C)c(C)c1CN(Cc1nc(CCC(C)C)no1)C(C)C,i,-1.58
CS(=O)(=O)NN1C(=O)c2ccccc2NC1c1ccccc1 (stereo not given),i,0.74
CN=C1NN=C(c2cc(C)n(-c3ccc(Cl)cc3)c2C)CS1,i,-0.71
OC1(c2ccc3c(c2)OCO3)CCN(Cc2ccccn2)CC1,i,1.06
CSc1ccc(/C=C(/NC(=O)c2ccco2)C(=O)N2CCCCCC2)cc1,i,-0.27
CC(C)(O)C#Cc1ccc(C(=O)N2CCN(c3ccc(Cl)cc3)CC2)cc1,i,0.55
Nc1nonc1C(=O)N/N=C/c1cc(Br)ccc1O,i,-1.08
Cc1cc(OC(C)C(=O)NCCN2CCOCC2)c2c(C)cc(=O)oc2c1 (stereo not given),i,-0.08
COc1cccc(CN2C(=O)CN(C3CCCCC3)C(=O)C2c2ccc(F)cc2)c1 (stereo not given),i,-2.8
NS(=O)(=O)c1ccc(CCNC(=O)NC2CCCCC2)cc1,i,1.46
CCC(=O)Nc1nc2ccc(S(C)(=O)=O)cc2s1,i,-0.02
COc1ccc(C(=O)c2ccc(OC)cc2O)c(O)c1,i,1.37
CCC(C)Sc1cccc(-c2nc3ccc(C)cn3c2NCc2ccccc2)c1 (stereo not given),i,0.12
O=C(Nc1ccc(Nc2ccccc2)cc1)C(Cl)Cl,i,0.19
COc1ccc(N2C(=O)C3C4C=CC(c5ccccc5)(C3C2=O)C2C(=O)N(c3ccc(OC)cc3)C(=O)C42)cc1 (stereo not given),i,-0.97
CCOC(=O)CSc1nc2c([nH]c3ccccc32)c(=O)n1C,i,-0.68
Nc1ccnc(Oc2ccc(F)cc2)c1,i,2.11
COc1ccc(CN(C)C(=O)c2ccccc2Sc2ccccc2C#N)c(OC)c1,i,1.1
CCC(=O)Nc1ccc2c(c1)C(=O)N(C1CCCCC1)C2=O,i,-1.65
CCc1cc(=O)oc2cc(C)c(CN3CCCCC3)c(O)c12,i,0.02
COc1ccc(OCCOC(=O)c2cc(S(=O)(=O)N3CCOCC3)c(Cl)cc2Cl)cc1,i,0.8
c1ccc2c(c1)CCCN2Cc1nnc2n1CCCCC2,i,1.36
c1ccc(NCn2cncn2)nc1,i,-0.73
NNC(=O)c1sccc1OCc1cccc(C(F)(F)F)c1,i,-0.15
CCOc1ccc(C(C(=O)Nc2ccc(F)cc2)N(C(=O)Cn2nnc3ccccc32)C2CC2)cc1 (stereo not given),i,-0.37
O=[n+]1cc(-c2cccc3ccccc23)n([O-])c2c1CCC2,i,2.63
O=C(CN1CC(c2ccccc2)CC1=O)OCc1cccc(Br)c1 (stereo not given),i,0.07
CCOc1cc(/C=C\[N+](=O)[O-])ccc1OCC(=O)Nc1ccccc1C,i,0.02
CC(=O)c1nn(-c2cccc(Br)c2)cc1C(=O)c1ccc(C)cc1,i,-0.68
COc1ccc(N=N/C(=C\O)C(=O)c2ccco2)cc1,i,-3.58

# Compound activity deposited in PubChem BioAssay by Johns Hopkins Ion Channel Center.

# These rows are one share of the data; rates above refer to the full screens.
